RanGTP-Impb inh – inhibitors of RanGTP-importin-beta interaction, primary screen, biochemical, FRET, CFP-Ran, YFP-importin-beta, homogeneous | cell-free CFP-Ran/YFP-importin-beta FRET ratio | AID 2216 | inhibition, % (no concentration beside the values) | 300,000 tested, 1.1% active;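 active = most replicates above 15%; inconclusive = exactly half above 15%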;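 note: 0% = DMSO wells and 100% = Ran loaded with GDP instead of GTP; wells of about 40 µL received 100 nL stock; the first replicate is given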
Calb FLC – affects C. albicans growth with fluconazole; C. albicans CaCi-2 (fluconazole-resistant clinical isolate) + fluconazole, Alamar Blue growth, 48 h; 300,000 tested, 0.57% active; growth inhibition, % (test concentration not listed);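 active = most replicates above 75%; inconclusive = exactly half above 75%; inactive = most below 75%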;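 note: all wells also contain fluconazole at 8 µg/ml as a sub-toxic cotreatment; 0% = median of DMSO wells and 100% = median of geldanamycin control wells; wells of about 8 µL received 7.5 nL stock; the first replicate is given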
HNF4A DNA FP – change in binding of human HNF4 alpha to DNA | HNF4a-FITC DNA binding, fluorescence polarization, 1 h | activity change, % at 10 µM | 360,000 tested, 0.3% active; in the data active = activity change above about 30%, passing the limit was not always enough;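 note: controls were the assay level and a saturating level of protein; the project sought stronger binding though the title names inhibitors; some compounds called inactive have numbers as strong as hits; positive values seem to mean higher polarization but the record does not say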
ALR inh – blocks human ALR sulfhydryl oxidase activity; purified ALR, DTT oxidation, H2O2 HRP-luminol luminescence; inhibition, % (no concentration beside the values); 290,000 tested, 3.8% active;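 active = mean and each replicate at 75% or more; inconclusive = only one of the two met; inactive = neither met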;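 note: stock transfer was 7.5 nL into about 7.5 µL; 0% = neutral wells and 100% = wells with inactivated enzyme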
Beta2AR agonist – agonists of human beta-2 adrenergic receptor inducing internalization. P07550. Am2.2-beta2AR cells, FAP receptor internalization, flow cytometry; reference of the scale not given here. response, % (no concentration beside the values). 340,000 tested, 0.43% active;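 active = response above a set limit, near 3 SD of response in nonfluorescent compounds, cut at about 42% in these data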;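 note: stock transfer was 100 nL into about 11 µL; a reference agonist was the positive control; negative values mostly stem from fluorescent compounds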
Vif TR-FRET – inhibitors of Vif binding to APOBEC3G peptide, primary screen, biochemical, TR-FRET, GST-Vif 1-94, biotin-A3G peptide, dose response retest (AID 1117319). TR-FRET GST-Vif / biotin-A3G peptide binding; higher % means a stronger effect; test concentration not given here; strong numbers were not always called active. one-dose inhibition, %; IC50 in µM for titrated hits. 260,000 tested, 0.57% active;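 active = above the screen mean plus three standard deviations and confirmed in dose response; inconclusive = results disagree or hit not tested in dose response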;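 note: Vif residues 1-94 fused to GST binding biotinylated APOBEC3G peptide 110-148; 0% = full assay without inhibitor and 100% = GST in place of GST-Vif; retest series ran down from 100 µM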
LANA-H2A inh – blocks KSHV LANA binding to histone H2A/H2B. Q9QR71. cell-free LANA-H2A/H2B peptide, fluorescence polarization. inhibition, % (concentration not given with the values). 320,000 tested, 0.6% active. AID 2629; in the data active = inhibition mostly above about 10%, no sharp cut-off; inactive = mostly below about 6.7%;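 note: stock transfer was 7.5 nL into about 10 µL; 0% = median of vehicle wells and 100% = median of positive control wells; one replicate is shown; the record names a cut of 25% in any replicate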
Target sequence (Q9QR71 whole entry, looked up): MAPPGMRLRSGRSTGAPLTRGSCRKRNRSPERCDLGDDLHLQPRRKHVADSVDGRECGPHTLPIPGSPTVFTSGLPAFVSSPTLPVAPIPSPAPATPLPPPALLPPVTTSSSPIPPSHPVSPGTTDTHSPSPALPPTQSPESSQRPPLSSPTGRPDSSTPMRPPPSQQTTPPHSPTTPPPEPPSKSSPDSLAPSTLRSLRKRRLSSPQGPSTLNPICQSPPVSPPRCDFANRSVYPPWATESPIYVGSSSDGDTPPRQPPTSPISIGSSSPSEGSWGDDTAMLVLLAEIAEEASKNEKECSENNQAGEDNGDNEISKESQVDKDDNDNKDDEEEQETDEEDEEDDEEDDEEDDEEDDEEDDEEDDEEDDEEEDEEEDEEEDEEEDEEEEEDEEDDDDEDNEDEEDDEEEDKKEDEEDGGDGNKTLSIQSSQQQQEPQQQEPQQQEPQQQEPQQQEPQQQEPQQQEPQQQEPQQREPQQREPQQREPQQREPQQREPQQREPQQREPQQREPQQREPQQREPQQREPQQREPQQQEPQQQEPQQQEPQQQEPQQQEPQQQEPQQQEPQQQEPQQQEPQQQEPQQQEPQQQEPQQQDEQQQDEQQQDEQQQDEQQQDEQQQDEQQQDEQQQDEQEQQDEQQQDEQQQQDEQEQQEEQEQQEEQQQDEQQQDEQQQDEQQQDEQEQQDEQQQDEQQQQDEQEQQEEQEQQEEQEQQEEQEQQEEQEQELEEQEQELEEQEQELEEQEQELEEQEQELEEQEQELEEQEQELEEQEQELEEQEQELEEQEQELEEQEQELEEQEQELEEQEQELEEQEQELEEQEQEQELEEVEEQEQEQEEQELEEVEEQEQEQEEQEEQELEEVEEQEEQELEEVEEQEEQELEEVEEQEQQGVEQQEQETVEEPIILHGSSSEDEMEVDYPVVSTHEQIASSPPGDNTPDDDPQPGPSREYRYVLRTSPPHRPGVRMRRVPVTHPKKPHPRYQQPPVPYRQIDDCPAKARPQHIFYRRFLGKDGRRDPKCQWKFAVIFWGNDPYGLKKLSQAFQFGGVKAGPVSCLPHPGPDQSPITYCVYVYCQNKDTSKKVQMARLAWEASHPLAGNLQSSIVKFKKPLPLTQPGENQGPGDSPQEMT
Numbers without * were called inactive; ? = inconclusive; · = not tested or not shown; & = joins results of further samples.

SMILES	RanGTP-Impb inh	Calb FLC	HNF4A DNA FP	ALR inh	Beta2AR agonist	Vif TR-FRET	LANA-H2A inh
Cc1ccc(Cn2nc(C)c(NC(=O)CSc3n[nH]c(C)c3[N+](=O)[O-])c2C)cc1	5.2	11	0.8	-1	-2	-1%	24
C/C(=N\NC(=O)c1ccccc1[N+](=O)[O-])c1c(O)cc(C)oc1=O	3.3	-2	-2.3	-1	-8	-2%	-3.7
Cc1cccc(C)c1NC(=O)C1CCN(S(C)(=O)=O)CC1	?	4	-0.1	-5	1	2%	-4.0
Cc1cccc(C(C(N)=O)c2ncc(C(F)(F)F)cc2Cl)c1 (centres undefined)	-1.8	-6	-0.9	-6	0	-1%	-2.7
O=C(O)CCCCCNCc1ccncc1	5.2	-15	-0.4	·	-6	1%	-3.1
O=C(O)c1c(NC(=O)N(CCO)Cc2ccccc2)sc2c1CCCC2	-2.4	-1	-3.2	·	-13	3%	-3.6
COC(=O)c1c(NC(=S)Nc2ccc(F)cc2[N+](=O)[O-])sc2c1CCCCC2	-0.4	-18	1.8	19	10	18%	3.8
CCc1ccc2c(c1)C(NC(C)=O)C(=O)N2CCN1CCOCC1 (centres undefined)	-1.6	-12	-0.1	·	7	-3%	0.4
Cc1cc(=O)[nH]c(COc2ccccc2)n1	0.1	-3	-0.8	-15	-5	2%	-1.9
c1ccc2c(NC3C4CC5CC(C4)CC3C5)nc(N3CCOCC3)nc2c1 (centres undefined)	0.9	-2	0.7	3	-5	-14%	-6.5
C/C(=N\NC(N)=O)c1ccccc1	1.0	-3	-2.5	-1	11	-5%	0.8
Cc1cccc(C(=O)Oc2csc(=S)n2C(=O)c2cccc(C)c2)c1	1.8	44	-0.3	6	7	-2%	4.0
CSc1ccccc1C(=O)C1CCCN(Cc2c(C)n(C)n(-c3ccccc3)c2=O)C1 (centres undefined)	·	-11	-5.6	-9	-2	-17%	5.5
COc1ccc(CCNC(=O)C2CCN(c3nn4c(=O)cc(C)nc4s3)CC2)cc1OC	-2.5	-6	-1.6	-8	2	-7%	3.8
Cc1ccc(CNC(=O)c2nnc(Cc3ccc(Cl)cc3)o2)cc1	-1.6	-2	3.5	·	2	-5%	-1.7
COc1ccc(C(=O)Oc2c(OC)cc(C(=S)N3CCOCC3)cc2OC)cc1OC	?	-2	-2.2	-6	2	5%	-0.8
COc1cc(S(=O)(=O)NCc2cccnc2)ccc1F	-2.6	-21	-4.3	-7	-2	-2%	3.0
Cc1nn(-c2ccccc2)c(C)c1/C=C/C(=O)OCC(=O)Nc1ccc(C(N)=O)cc1	·	·	0.5	-4	-7	8%	3.1
c1ccc(C2Nc3ccccc3C3OCCCC23)cc1 (centres undefined)	-2.9	-6	-0.2	99*	-4	6%	2.9
COCCCN(C(=O)c1cc2c(s1)CCCCC2)c1c(N)n(Cc2ccccc2)c(=O)[nH]c1=O	1.6	3	-3.1	·	8	1%	-2.0
Cc1ccc(/C=N/N2CCN(Cc3ccccc3)CC2)o1	-3.8	0	2.8	0	1	25%	-2.5
COc1cccc(CN(C(=O)COc2ccccc2[N+](=O)[O-])C2CCS(=O)(=O)C2)c1 (centres undefined)	2.1	-4	0.5	-18	-2	3%	-2.1
CCCOC1CCCN(C(=O)c2cc(COc3cncc(Cl)c3)on2)C1 (centres undefined)	-0.4	6	1.8	·	-6	·	·
COC(=O)[C@]1(C)N[C@H](CN(C)C(=O)NC(C)C)[C@@H]2C(=O)N(Cc3ccccc3)C(=O)[C@@H]21	·	·	-2.1	·	1	6%	-1.4
COc1cc(C(=O)NNC(=O)CCOc2ccccc2C)cc(OC)c1OC	·	·	7.1	-2	5	3%	0.6
Cc1ccc(Cc2cncc(O)c2)cc1S(=O)(=O)O	?	-1	-2.3	-1	-3	17%	-1.4
O=C(NCCN1CCN(c2ccccc2)CC1)Nc1ccccc1Br	-0.7	-9	2.5	?	-7	3%	-5.1
Cc1ccc(NCc2ccccc2)cc1	4.2	-5	0.6	-9	2	3%	-2.2
NC1=NC(=O)C(CC(=O)NCc2ccccc2)S1 (centres undefined)	-0.1	-8	0.1	-4	2	·	0.8
CC(=O)c1cccc(NC(=O)C(C)OC(=O)C2CCC2)c1 (centres undefined)	2.3	-2	12	-4	-3	·	-0.4
O=C1CS/C(=C/C(=O)c2cccc(Cl)c2)N1	-0.8	45	-0.7	·	9	·	-1.7
COc1ccc(C(=O)OCC(=O)NC(Cc2ccccc2)C(C)=O)cc1S(=O)(=O)N1CCCC1 (centres undefined)	·	·	2.1	·	2	2%	·
Cc1ccc(S(=O)(=O)N(C)CC(=O)OCC(=O)N2CCCC2=O)cc1	2.2	-19	-3.5	-12	13	-3%	-2.4
Cc1ccccc1CN1CCC(Oc2ccc(C(=O)NCc3ccccn3)cc2)CC1	-3.0	-6	3.4	-4	-16	·	-5.0
COc1ccc(S(=O)(=O)NCCC(=O)NCc2ccccc2)cc1	3.0	1	-2.3	-5	4	-4%	0.9
Cc1cc(C)n2nc(SCc3nnc(SCCCCl)o3)nc2n1	0.8	-2	1.1	-9	-28	6%	5.5
N#C/C(=N\Nc1ccc(Cl)cc1)C(N)=S	?	4	-0.4	94*	20	0%	-1.6
CN1CCN(C(=O)CSc2nc(-c3ccco3)cc(C(F)(F)F)n2)CC1	0.3	5	-4.1	1	-9	-5%	-6.1
CCC(C)Sc1cc(-c2nc3ccccn3c2NC2CCCCC2)ccc1OC (centres undefined)	?	22	6.5&6.9	·	12	·	-3.2
CCc1ccc(S(=O)(=O)ON2C(=O)c3ccccc3C2=O)cc1	7.8	1	1.0	·	7	6%	·
COc1cc(C)cc(OC)c1OCC(=O)Nc1cc(C)on1	·	·	2.7	16	1	?	2.5
CCOc1ccc(C(=O)Nc2ccc(N3CCN(C)CC3)cc2)cc1	3.6	-2	0.5	0	-3	·	-1.7
COc1cc(/C=C2/SC(=S)N(CC(=O)Nc3nc4ccccc4s3)C2=O)cc(OC)c1OC	-26	29	12	-5	7	8%	-4.5
CC(=O)c1sc(Nc2ccc(C)cc2)nc1C	-4.3	20	4.7	-15	9	0%	1.8
CCNC(=O)c1ccccc1NC(=O)C1CC(=O)N(C(C)C)C1 (centres undefined)	-0.7	-5	-2.8	-4	-1	·	7.7
O=C(CN1C(=O)NC(Cc2c[nH]c3ccccc23)C1=O)NCCc1ccc(F)cc1 (centres undefined)	-2.7	4	1.3	·	2	-3%	8.3
Cc1ccc(NC(=O)CN(C)C(=O)COC(=O)COc2ccc(C#N)cc2)cc1	·	-4	4.0	6	-1	-2%	0.4
C=CCNC(=S)NNC(=O)c1ccc(C)c(Cl)c1	5.6	?	-1.1	·	-6	3%	-5.3
COc1ccc(S(=O)(=O)N2CCOCC2)cc1NC(=O)c1ccc(-n2nc(C)cc2C)cc1	1.9	3	-0.8	-16	7	·	1.3
CCOCCCNC(=O)c1c(C)[nH]c(C(=O)OCC)c1C	0.3	-10	3.0	-6	5	?	0.3
O=C(Nc1ccccc1)C1=C[C@@H](c2ccc3c(c2)OCO3)C[C@@H](OCCCCO)O1	2.9	17	2.6	-6	-6	·	-1.4
CC(CNC(=O)CC(C)(C)C)NC(=O)CC(C)(C)C (centres undefined)	0.6	0	-3.1	·	-4	2%	4.1
Cc1[nH]c(=O)nc(NN=Cc2ccc(Cl)cc2)c1C(=O)Nc1ccc(Cl)cc1	·	·	4.5	·	-4	66%	·
COc1ccc(NC(=O)C2CCN(C(=O)Cc3ccccc3)CC2)cc1OC	7.4	-9	-0.7	-10	8	-3%	-2.2
CCOC(=O)c1sc(NC(=O)C2CC(=O)N(c3ccccc3OC)C2)nc1C (centres undefined)	·	·	-3.8	·	-2	-13%	0.0
Cc1ccccc1Cn1ccc(NC(=O)c2cc3nc(-c4ccco4)cc(C(F)(F)F)n3n2)n1	54*	-10	1.6	2	-12	-3%&-1%	-5.3
O=C(Nc1cccc(Cl)c1)NC1CC2CCC1C2 (centres undefined)	?	24	-0.9	8	0	·	3.8
COCC1CCCN(Cc2cn(-c3ccccc3)nc2-c2ccc3c(c2)OCO3)C1 (centres undefined)	-1.0	0	3.3	-9	-9	-2%	3.1
CCS(=O)(=O)c1ccc(C=NNc2nc3ccccc3o2)cc1	·	·	4.5	·	-10	-8%	·
Cc1ccccc1NC(=O)Nc1c(C)n(C)n(-c2ccccc2)c1=O	-1.4	-2	2.5	-5	0	·	1.9

Additional records follow.
SMILES	RanGTP-Impb inh	Calb FLC	HNF4A DNA FP	ALR inh	Beta2AR agonist	Vif TR-FRET	LANA-H2A inh
Cc1cc(=O)oc2cc(NC(=O)CN3C(=O)NC(C)(c4ccccc4)C3=O)ccc12 (centres undefined)	·	6	-2.8	-1	11	-4%	2.0
O=c1[nH]c2cccnc2n1-c1ccc([N+](=O)[O-])cc1	-0.3	-3	-2.0	-5	-9	-6%	9.7
CC(=O)NCCC(=O)Nc1nc(-c2c[nH]c3ccccc23)cs1	1.2	14	9.2	·	13	·	·
COc1ccc(C(=O)N[C@H](C(=O)OCC(=O)NC(=O)c2cccn2C)C(C)C)cc1	-1.7	-16	4.5	-1	-8	15%	-2.8
CC(O)/C=C/C1OC(=O)CC1Nc1ccc(C=O)cc1 (centres undefined)	3.4	2	-1.8	-27	-2	1%	6.9
COc1ccc(NC(=O)CCc2nc3ccccc3c(=O)[nH]2)cc1S(=O)(=O)N1CCCCC1	·	·	0.5	-1	0	·	1.0
Cc1cccc(C(=O)N2CC(=O)Nc3ccc(F)cc3C2c2ccc(F)cc2)c1 (centres undefined)	1.9	3	-0.7	-2	2	-7%	2.8
COc1ccc(N2C(=O)c3cccc4c(N(C)CCO)ccc(c34)C2=O)cc1	-68	-5	-35	-11	13	-4%	2.4
Cc1ccc(S(=O)(=O)NC(CC(=O)NCC2CCCO2)c2ccccc2)cc1 (centres undefined)	?	2	1.4	-9	-2	6%	5.8
Cc1cc(C)n(-c2ncnc3sc4c(c23)CC(C)CC4)n1 (centres undefined)	-1.3	10	-2.4	-2	5	0%	-0.6
CCOC(=O)N1CCN(c2ccc(F)cc2[N+](=O)[O-])CC1	4.2	-5	-4.2	-9	-3	-2%	-1.2
O=C(Cn1cc(C(F)(F)F)ccc1=O)N/N=C/c1ccc(Cl)cc1	-0.1	-3	-5.3	-1	-5	20%	5.7
N#Cc1cn(CCCOc2ccccc2)c2ccccc12	0.1	?	1.9	-2	6	21%	-2.3
CCc1ccc(NC(=S)NC(=O)c2c(-c3ccccc3Cl)noc2C)cc1	1.9	16	-1.0	-6	-2	-7%	5.3
CC1CCN(C(=O)CCc2ccc(Oc3cc([N+](=O)[O-])cc([N+](=O)[O-])c3)cc2)CC1	-1.4	-20	-4.3	-76	-6	8%	-1.6

Part of the list above, with two lines to a compound:
Screens in order – RanGTP-Impb inh	Calb FLC	HNF4A DNA FP	ALR inh	Beta2AR agonist	Vif TR-FRET	LANA-H2A inh
NC1=NC(=O)C(CC(=O)NCc2ccccc2)S1 (centres undefined)
→ -0.1	-8	0.1	-4	2	·	0.8
Cc1ccc(/C=N/N2CCN(Cc3ccccc3)CC2)o1
→ -3.8	0	2.8	0	1	25%	-2.5
Cc1ccc(S(=O)(=O)NC(CC(=O)NCC2CCCO2)c2ccccc2)cc1 (centres undefined)
→ ?	2	1.4	-9	-2	6%	5.8

Later entries:
SMILES	RanGTP-Impb inh	Calb FLC	HNF4A DNA FP	ALR inh	Beta2AR agonist	Vif TR-FRET	LANA-H2A inh
CC(C)c1ccc(OCc2ccc(C(=O)N3CCN(c4ccccn4)CC3)cc2)cc1	-4.1	-9	-1.4	1	-12	0%	-4.3
Cc1onc(-c2c(Cl)cccc2Cl)c1C(=O)N1CCN(c2ccc(F)cc2)CC1	-0.1	-8	-0.9	-1	7	-7%	0.6
CCN(CC)CCCNC(=O)c1cc(-c2ccc(Cl)cc2)on1	-0.1	22	0.6	-1	13	14%	3.0
O=C(c1ccc(Cl)cc1)N1CCN(C(=O)C2CCCCC2)CC1	?	19	-4.6	-16	-4	5%	-6.1
